Source: PubChem BioAssay
Sa helicase inh: inhibitors of S. aureus replicative helicase, primary screen, biochemical, fluorescence unwinding readout. replicative DNA helicase (DnaC/DnaB), Staphylococcus aureus. purified S. aureus helicase, fluorescence unwinding assay; about half of the hits fall short of the stated cut. inhibition, %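 (tested at about 80 µM)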. hit rate 0.05% among 120,000;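 active = both duplicates at 50% or more, or one of them with a favoured structure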;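 also: 0% = mean of negative control wells and 100% = mean of positive control wells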
MgrA-DNA mod: S. aureus MgrA activity modulators, primary screen, biochemical, S. aureus Newman, fluorescence polarization; MgrA-DNA binding; inhibition, %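 (about 10 µg/mL by stock and volumes)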; hit rate 0.13% among 84,000; AID 602314, 2012;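 active = above 50% in either of two replicates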;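 also: 0% = protein plus DNA without compound and 100% = DNA alone without protein; higher means less MgrA bound to DNA so lower polarization; one replicate is shown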
* hit, by the source's call; / = no result given; & = joins results of further samples. This is a subset (hit frequency here may not be typical).

The first 2 compounds (preview)
Structure | Sa helicase inh | MgrA-DNA mod
CCN(CC)C(=O)Cn1c(=O)n(-c2ccc(F)cc2)c(=O)c2oc3ccccc3c21 | 8 | /
O=C(N/N=C/Cc1ccccc1)c1ccccc1O | -2 | /

The whole of this part, from the start:
Structure | Sa helicase inh | MgrA-DNA mod
CCN(CC)C(=O)Cn1c(=O)n(-c2ccc(F)cc2)c(=O)c2oc3ccccc3c21 | 8 | /
O=C(N/N=C/Cc1ccccc1)c1ccccc1O | -2 | /
COc1ccc(CCn2cc3c(c2-c2ccccc2)c(=O)n(C)c(=O)n3C)cc1OC | -1 | /
COc1ccc(CN=C2SCC(=O)N2c2ccccc2)cc1Cl | / | -2.4
CCN(C(=O)CCc1c(C)[nH]c(=O)c(C#N)c1C)c1nc2c(C)cccc2s1 | 2 | /
Cc1cc(C)c(S(=O)(=O)Nc2nnc(C(F)(F)F)s2)c(C)c1 | 1 | 1.2
COC(=O)c1ccc(/C=[N+](/[O-])C2(C)CCCCC2=O)cc1 (stereo unspecified) | -4 | 3.0
CCN(C(=O)c1ccc(Cl)cc1Cl)c1nnc(-c2ccncc2)s1 | -1 | -4.7
O=C(OCC(=O)N1CCCC1)c1ccc(Cl)nc1 | 9 | /
COc1ccc(NC(=O)CC2CCCC2)c(S(=O)(=O)N2CCCCC2)c1 | 12 | /
O=C(O)CNC(=O)C12CC3CC(CC(C3)C1)C2 | -14 | -1.9
CC(NC(=O)CSc1nnc(COc2ccccc2)o1)c1ccccc1 (stereo unspecified) | 31 | /
CCCCN(C(C)=O)c1c(N)n(CCC)c(=O)[nH]c1=O | -4 | /
O=C(Nc1ccccc1)C1=C(N2CCOCC2)/C(=C\c2cccnc2)CC1 | 15 | /
CSc1ccc(S(=O)(=O)Nc2ccc3c(c2)NC(=O)CC3)cc1 | 1 | -2.6
CCC1Sc2cc(S(=O)(=O)Nc3cccc(Cl)c3)ccc2NC1=O (stereo unspecified) | 10 | -1.4
COc1ccc(C=Nc2ccc(Br)cc2)cc1 | 9 | -1.3
CCOC(=O)C1CCN(c2cc(NCC(=O)O)c3c4c(onc24)-c2ccccc2C3=O)CC1 | -452 | /
N#Cc1ccc(CSc2ccc3c(c2)OCCO3)cc1 | 7 | /
CCOc1ccc2cc(-c3csc(N)n3)c(=O)oc2c1 | -12 | /
CC(C)(C)c1ccc(-c2cc(=O)[nH]c(=O)o2)cc1 | / | 0.9
CC1c2nc3ccccc3n2C(CC(=O)NCc2ccc(Cl)cc2)C(=O)N1Cc1ccccc1 (stereo unspecified) | 6 | -0.2
CCc1nc2sc3c(NCCc4ccccc4)ncnc3c2c2c1CCCC2 | 3 | 0.3
COC(=O)[C@@H]1CCN[C@@H]1c1c(Cl)cccc1Cl | 3 | -5.5
CC(CCc1ccccc1)NC(=O)c1ccco1 (stereo unspecified) | 1 | -1.2
CC(C(=O)C(C#N)c1nc2ccccc2n1C)N1C(=O)c2ccccc2C1=O (stereo unspecified) | -12 | /
COc1cc(/C=C\C(=O)NCCc2cc3ccc(C)cc3[nH]c2=O)cc(OC)c1OC | -1 | 0.2
Cc1cccc(NC(=O)c2ccc3ccccc3c2)c1C | -3 | 1.4
O=c1[nH]c(=S)[nH]c2scc(-c3ccc(Br)cc3)c12 | / | 4.7
CC1(C)NN(CCO)C(=Nc2ccccc2)S1 | 22 | /
CC(C)(C)NC(=O)Cc1csc2nc(-c3ccccc3)cn12 | 6 | /
CCN1CCN(c2nc(-c3ccc(C(C)(C)C)cc3)nc3ccccc23)CC1 | 9 | -3.4
COc1ccccc1/C=C(\C#N)c1ccc(-n2cccc2)cc1 | / | 1.1
O=C(NCc1ccco1)c1ccc2c(=O)n(C3CCCCC3)c(SCc3cc(F)ccc3F)nc2c1 | 4 | /
Cc1ccc2c(=O)cc(-c3cccc(F)c3)oc2c1 | 2 | 1.0
CCOC(=O)N1CCN(C(=O)c2ccc(-n3c(=S)[nH]c4ccccc4c3=O)cc2)CC1 | -10 | 0.7
COC(=O)C1=C(C)NC(SCC(=O)Nc2ccccc2)=C(C#N)C1c1ccccc1F (stereo unspecified) | 14 | /
COc1ccc(-c2oc(NC(=O)Cc3ccc(OC)c(OC)c3)c(C#N)c2-c2ccc(OC)cc2)cc1 | -10 | 1.1
CC(C)CCNC(=O)c1ccc2c(c1)C(=O)c1ccccc1-2 | -11 | /
Cn1c(/C(C#N)=C(\O)CN2C(=O)CCC2=O)nc2ccccc21 | 7 | /
CCOC(=O)COc1cccc(Cl)c1 | 10 | -0.4
O=C(COC(=O)c1ccc2ccccc2n1)c1ccc2[nH]c(=O)[nH]c2c1 | 25 | /
CN(C)c1cc(N2CCNCC2)nc(N(C)C)c1C#N | / | -2.3
CCOC(=O)COc1ccccc1C(=O)O | 6 | -0.1
O=C(O)C1CCCN(C(=O)c2ccc(F)cc2)C1 (stereo unspecified) | -9 | /
CN(C)c1ccc(/C=C2/SC(=S)N(CC(=O)O)C2=O)cc1 | / | 2.2
COc1ccc(NC(=O)CCN2CCN(C3c4ccccc4-c4ccccc43)CC2)cc1 | 6 | /
CC1CC(C)CN(C(=O)CSc2nncn2-c2cccc(Cl)c2)C1 (stereo unspecified) | -3 | /
O=C(CC(c1ccccc1)c1ccccc1)NCc1nc(-c2ccccc2)no1 | 11 | -0.2
O=C(O)CCc1ccc(-c2ccccc2F)o1 | 9 | /
Cc1cc(C)nc(NNC(=O)c2ccccc2)n1 | -2 | -0.5
O=C1NC(C(=O)O)=CC(c2ccccc2)N1 (stereo unspecified) | 5 | -0.3
NNc1nncc2ccccc12 | / | 6.6&1.5
Cc1cc(C)n(C2=NCCN2)n1 | / | -4.4
CCn1c(C(=O)N2CCC(C(=O)O)CC2)cc2sccc21 | 12 | -0.8
Cc1ccc(N(C)NC=C(C#N)C#N)nn1 | -25 | /
Cc1c(Cl)cccc1NCc1nc2ccccc2s1 | -11 | 2.9
O=C(NCC1COc2ccccc2O1)C1COc2ccccc2O1 (stereo unspecified) | -6 | 3.8
O=C(O)CCc1c(-c2ccccc2)cc2ccccn12 | -4 | 2.5
O=C(O)c1cccc(Nc2nc(Nc3ccccc3)nc(N3CCCC3)n2)c1 | 9 | 1.8

(continued)
Structure | Sa helicase inh | MgrA-DNA mod
CN1CCN(/N=C/c2ccc(Cl)cc2)CC1 | 2 | 3.7
O=C1CSC(=Nc2cccc(C(F)(F)F)c2)N1 | -1&9 | -3.2
COc1ccc(CN(C)C(=O)c2ccccc2OC)cc1 | 2 | -1.2
O=C(NCc1csc2ccccc12)c1ccco1 | / | 0.4
O=C(OCCN1CCCC1=O)c1cccs1 | 13 | 1.4
CC(C)C(NC(=O)c1ccccc1Cl)C(=O)NC1CCCCCC1 (stereo unspecified) | -20 | 1.9
Brc1ccc(CSc2nccn2-c2cccnc2)cc1 | / | -0.8
O=C(N/N=C/c1ccc(N2CCOCC2)cc1)c1ccc(O)cc1 | -13 | /
CN1CCN(c2nc(-c3ccc(O)cc3O)cs2)CC1 | 4 | /
CCC(CC)C(CC(=O)O)N1Cc2ccccc2C1=O (stereo unspecified) | / | -4.2
Cc1ccc2c(c1)-c1c(cnn1CC(=O)NCC1CCCO1)CO2 (stereo unspecified) | -13 | /
COC(=O)C1CSCC/C1=N\Nc1ccc(Cl)cc1Cl (stereo unspecified) | -7 | /
CCN1CCc2c(sc(NC(=O)c3ccc(S(=O)(=O)N4CCCC4)cc3)c2C(N)=O)C1 | 12 | /
Cc1ccc(N2CCC(=O)N2)cc1 | 10 | -0.2
Cc1ccc2nc(NCCCNC(=O)c3cnccn3)c(C#N)cc2c1 | 5 | -3.4
CCOc1ccc(S(=O)(=O)N2CCN(C3CC(=O)N(Cc4ccccc4)C3=O)CC2)cc1 (stereo unspecified) | -15 | /
CCOc1ccc(NC(C)C(=O)NC2(C#N)CCCCC2)cc1 (stereo unspecified) | 0 | /
Cc1nnc(NCCCN2CCOCC2)c2ccccc12 | -7 | /
CCN(CC)C(=O)C1CC(=O)OC1(C)C (stereo unspecified) | 14 | 4.7
CC(C)S(=O)(=O)c1csc(C(=O)OCC(=O)c2ccc(Cl)cc2)c1N | / | 0.2
Cn1c(=NC(=O)C2CCCCN2S(=O)(=O)c2cccc3nsnc23)sc2ccccc21 (stereo unspecified) | -16 | /
CN1CCOc2cc(S(=O)(=O)NCc3csc(-c4cccs4)n3)ccc21 | / | -0.9
COC(=O)c1ccc(NC(=O)/C(=C\c2ccco2)NC(=O)c2ccccc2OC)cc1 | -34 | /
Nc1nc(COC(=O)c2ccc(S(=O)(=O)C(F)F)cc2)nc(Nc2ccccc2)n1 | -2 | /
COc1cc(N)c(Cl)cc1C(=O)O | 11 | 0.6
COc1cc2ncc(-c3ccccc3)nc2cc1OC | / | 0.2
CC1CC(C)CN(c2cc(=O)n(Cc3ccc(F)cc3)c(=O)[nH]2)C1 (stereo unspecified) | 11 | /
Cc1ccc(C(C)C)c(OCC(=O)NCCC23CC4CC(CC(C4)C2)C3)c1 | -1 | -0.9
COC(=O)c1sc2ccccc2c1OS(=O)(=O)c1ccc(C)cc1 | / | -1.7
O=C(NCSc1nc2ccccc2s1)C(F)(F)F | 1 | 2.3

(continued)
SMILES	Sa helicase inh	MgrA-DNA mod
COc1ccc(C(c2nnnn2C2CCCC2)N2CCN(C(=O)c3ccco3)CC2)cc1OC (stereo unspecified)	14	-3.9
COc1ccc(C2Nc3ccccc3C(=O)N2c2ccc(C)cc2)cc1Cn1cc([N+](=O)[O-])cn1 (stereo unspecified)	/	0.1
CCOC(=O)/C(N=Nc1ccc(Br)cc1)=C(\C)O	/	3.3
O=c1c2ccccc2nnn1CSc1ccc(F)cc1	-5	/
NC(=O)C1CCCN(CC(=O)N(Cc2cccs2)c2ccc3c(c2)OCCO3)C1 (stereo unspecified)	-5	/
CN(CC(=O)Nc1ccccc1Cl)C1CCS(=O)(=O)C1 (stereo unspecified)	-14	/
Cc1ccc2cc(CCNC(=O)C3CCCCC3)c(=O)[nH]c2c1	-6	/
COc1ccc(CNc2nc(-c3cccnc3)nn2C(=O)C2CC2)cc1OC	-4	-4.3
COC(=O)c1sc(SC)c(C#N)c1-c1ccc(OC)cc1	/	-0.7
CCn1ccc(C(=O)Nc2ccc(Cl)cn2)n1	16	/

Record cards (already shown). Order of values: Sa helicase inh, MgrA-DNA mod
N#Cc1ccc(CSc2ccc3c(c2)OCCO3)cc1 across the screens: 7, /
O=C(N/N=C/c1ccc(N2CCOCC2)cc1)c1ccc(O)cc1 across the screens: -13, /
O=C1NC(C(=O)O)=CC(c2ccccc2)N1 (stereo unspecified) across the screens: 5, -0.3
CCN1CCN(c2nc(-c3ccc(C(C)(C)C)cc3)nc3ccccc23)CC1 across the screens: 9, -3.4
NNc1nncc2ccccc12 across the screens: /, 6.6&1.5

(continued)
SMILES	Sa helicase inh	MgrA-DNA mod
CC(=O)NCc1nc(-c2ccccc2)no1	14	/
O=C(CN1C(=O)CSc2ncccc21)NC1CCCC1	7	/
CCC(C)N(C(=O)CSc1nc(NC)c2ccccc2n1)C1CCS(=O)(=O)C1 (stereo unspecified)	21	/
O=C(Nc1cc2ccccc2cn1)c1cccc2c1OCCCO2	/	-3.5
COC(=O)C1=CN(c2ccc(F)cc2)C=C(C(=O)OC)C1c1ccc(OC)c(O)c1	28	/
O=C(CSCc1ccccc1)Nc1nnc(Cc2ccccc2)s1	18	3.1
O=C(CSC1=NCCS1)NC1Cc2ccccc2C1	/	2.6
O=C(Nc1ccc2c(c1)OCCO2)c1ccc2nsnc2c1	/	-1.2
C=CCNC(=S)N1CCN(CCN=CC2=C(O)CC(c3ccccc3)CC2=O)CC1 (stereo unspecified)	0	/
Cc1nnc(Nc2ccc(S(N)(=O)=O)cc2)c2ccccc12	6	0.0

As a working copy, some entries already given.
SMILES	Sa helicase inh	MgrA-DNA mod
CCN(CC)C(=O)Cn1c(=O)n(-c2ccc(F)cc2)c(=O)c2oc3ccccc3c21	8	/
O=C(N/N=C/Cc1ccccc1)c1ccccc1O	-2	/

(next part)
SMILES	Sa helicase inh	MgrA-DNA mod
N#C/C(=C(\O)c1ccc(C#N)cc1)c1nc2ccccc2s1	-19	/
O=C1CNC(=S)N1CCOc1ccccc1Cl	/	0.0
ONc1cccnc1-n1nc(C(F)(F)F)cc1C(F)(F)F	/	8.8
Cc1cccc(-c2noc(NC(=O)O/N=C/c3c(Cl)cccc3Cl)n2)c1	15	/
CCC(=O)Nc1sccc1C(=O)OC	-11	1.4
CC(C)(C)c1nnc(Nc2ccc3c(c2)OCO3)n(N)c1=O	-5	-3.2
CCOC(=O)C1CCN(C2c3ccccc3-c3ccccc32)CC1	21	/
CC12CCC(c3c1noc3C(F)(F)F)C2(C)C (stereo unspecified)	/	-1.9
c1ccc(-c2cnc(-c3ccccc3)o2)cc1	-23	/
CCOc1ccc(-c2c(C#N)c(N)nc(SCC(=O)c3ccc(Cl)cc3)c2C#N)cc1	4	1.6
NC(=O)Cn1cc(/C=C2/C(=O)NC(=O)N(C3CCCCC3)C2=O)c2ccccc21	-3	22
CCC(=O)N1N=C(c2ccc(F)cc2)CC1c1ccc(OC)cc1 (stereo unspecified)	13	5.4
CC1C/C(=N\NC(=O)C2COc3ccccc3O2)CC(C)(C)C1 (stereo unspecified)	-5	/
CCOC(=O)NS(=O)(=O)c1ccc(-c2cc(C(F)(F)F)n(C)n2)s1	/	-2.2
CC1=C(C#N)C(=O)NC(=O)/C1=C/c1ccc(N(C)C)cc1	-8	8.8
